# DDE Tn7 FP inh: inhibitors of Tn7 peptide binding to fibrin DD(E), primary screen, biochemical, fluorescence polarization, human fibrin, Tn7 probe; inhibition, % at 8.3 µM; Fibrinogen beta chain (Homo sapiens), P02675; FP displacement of FITC-Tn7 peptide from fibrin DD(E); 0% = median of compound wells per plate; 370,000 tested, 0.13% active;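 active means inhibition above the mean of compounds falling within the control limits plus 3 SD of them, cut at about 14% in these data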;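 further: 0% = plate median of compound wells and 100% = 10 µM Aha-Tn7 peptide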
#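 Assay system: Fibrin-DD(E) protein isolated from polymerized human fibrin clots; read-out basis: percent inhibition; medium: Tris/NaCl/CaCl2 buffer, pH 7.8; signal: FP measurement; incubation: 10 min plus 3 h, room temperature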
# ASAP1 GAP inh: inhibitors of human ASAP1 ArfGAP activity, primary screen, biochemical, fluorescence polarization. ASAP1-stimulated ARF1 GTP hydrolysis, GDP FP detection. inhibition, % at 16.5 µM. 360,000 tested, 0.19% active. AID 624377, 2012; in the data active means inhibition above about 25%;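 further: 0% = vehicle with enzyme and substrate and 100% = no enzyme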
# PLC-beta3 inh: human PLC-beta3 inhibitors, primary screen, biochemical, fluorescence; AID 720704, 2013; 370,000 tested, 0.18% active; 1-phosphatidylinositol 4,5-bisphosphate phosphodiesterase beta-3 (Homo sapiens), Q01970; inhibition, % at 12.2 µM; Purified PLC-beta3, fluorogenic substrate; in the data active means inhibition above about 11%;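 further: 0% = median of compound wells on plate and 100% = full blocker control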
# Target sequence (Q01970 whole entry, looked up): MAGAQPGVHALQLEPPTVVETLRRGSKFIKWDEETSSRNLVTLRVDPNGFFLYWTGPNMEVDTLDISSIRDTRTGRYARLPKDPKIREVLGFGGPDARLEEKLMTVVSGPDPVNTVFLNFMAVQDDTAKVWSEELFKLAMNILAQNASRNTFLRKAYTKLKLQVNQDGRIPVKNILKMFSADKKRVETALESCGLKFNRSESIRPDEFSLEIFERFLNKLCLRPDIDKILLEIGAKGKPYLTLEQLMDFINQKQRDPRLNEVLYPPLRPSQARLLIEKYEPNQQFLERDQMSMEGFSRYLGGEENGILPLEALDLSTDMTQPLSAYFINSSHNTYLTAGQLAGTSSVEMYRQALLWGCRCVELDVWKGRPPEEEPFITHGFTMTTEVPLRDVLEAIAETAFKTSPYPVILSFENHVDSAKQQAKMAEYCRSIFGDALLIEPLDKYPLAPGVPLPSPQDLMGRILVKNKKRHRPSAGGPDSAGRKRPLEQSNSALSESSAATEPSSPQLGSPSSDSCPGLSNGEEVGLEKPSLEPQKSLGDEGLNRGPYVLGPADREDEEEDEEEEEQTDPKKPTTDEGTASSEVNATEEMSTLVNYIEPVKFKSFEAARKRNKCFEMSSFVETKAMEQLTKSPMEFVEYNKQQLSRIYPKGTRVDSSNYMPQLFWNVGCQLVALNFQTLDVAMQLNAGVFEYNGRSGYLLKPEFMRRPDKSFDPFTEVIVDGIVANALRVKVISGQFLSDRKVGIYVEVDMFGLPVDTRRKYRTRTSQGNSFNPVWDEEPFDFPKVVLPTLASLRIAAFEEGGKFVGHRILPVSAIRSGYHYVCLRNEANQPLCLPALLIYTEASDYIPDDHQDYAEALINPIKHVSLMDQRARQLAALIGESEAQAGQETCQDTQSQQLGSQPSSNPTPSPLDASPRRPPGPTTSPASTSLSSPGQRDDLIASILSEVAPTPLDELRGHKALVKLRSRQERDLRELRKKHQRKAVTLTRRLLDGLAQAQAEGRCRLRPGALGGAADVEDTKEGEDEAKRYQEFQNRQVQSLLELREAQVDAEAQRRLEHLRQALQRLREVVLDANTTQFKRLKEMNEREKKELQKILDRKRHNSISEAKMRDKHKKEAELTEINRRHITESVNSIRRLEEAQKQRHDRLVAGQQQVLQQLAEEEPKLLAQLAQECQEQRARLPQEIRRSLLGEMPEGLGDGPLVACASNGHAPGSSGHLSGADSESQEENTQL
# PLC-gamma1 inh: PLC-gamma1 enzyme inhibitors, primary screen, biochemical, fluorescence, purified enzyme. 370,000 tested, 0.84% active. fluorogenic substrate. 1-phosphatidylinositol 4,5-bisphosphate phosphodiesterase gamma-1 (Homo sapiens), P19174. inhibition, % at 12.2 µM; in the data active means inhibition above about 9.5%
# ARFGAP1 inhibitor: inhibitors of rat ARFGAP1 GAP activity, primary screen, biochemical, fluorescence polarization, GDP tracer | inhibition, % at 16.5 µM | ADP-ribosylation factor GTPase-activating protein 1 (Rattus norvegicus), Q62848 | AID 651572, 2012 | 360,000 tested, 0.26% active | Arfgap1-stimulated ARF1 GTP hydrolysis, GDP FP detection;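 active means inhibition above a per-plate limit, mean inhibition of low control wells plus 3 SD, cut at about 25% in these data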;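 further: 0% = DMSO wells with enzyme and 100% = wells lacking Arfgap1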
#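 Material: rat Arfgap1 GAP domain (His6, aa 1-136), purified enzyme. Also added: human ARF1(Δ1-17)-GTP substrate. Compound dosing: 16.5 µM single point, 1.26% DMSO. Timing: enzyme reaction 120 min at 25 °C after 20 min preincubation. Signal: GDP detection by fluorescence polarization. Read-out basis: percent inhibition of GAP-stimulated GDP formation, scaled between DMSO and no-Arfgap1 medians.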
# UHRF1 MBD2 ctr: UHRF1 methylated DNA binding inhibitors, primary screen, counter-screen for MBD2 inhibitor project, biochemical, TR-FRET, human UHRF1, single concentration. UHRF1 binding to methylated oligo. inhibition, % at 4.4 µM. 370,000 tested, 0.75% active. AID 687016, 2013; in the data active means inhibition above about 21%;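 further: UHRF1 SRA domain binding a hemimethylated CpG hairpin DNA probe; 0% = median of test compound wells and 100% = reference inhibitor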
# MBD2 DNA inh: inhibitors of MBD2 binding to methylated DNA, primary screen, biochemical, TR-FRET, DNA-binding domain, human; Methyl-CpG-binding domain protein 2 (Homo sapiens), Q9UBB5; 370,000 tested, 0.31% active; inhibition, % at 4.4 µM; MBD2 binding to methylated oligonucleotide; in the data active means inhibition above about 13%
# ADAM17 inh: ADAM17 inhibitors, primary screen, biochemical, QFRET; Disintegrin and metalloproteinase domain-containing protein 17 (Homo sapiens), P78536; recombinant ADAM17, EDANS/DABCYL FRET peptide cleavage; inhibition, % at 6.95 µM; 370,000 tested, 0.83% active; AID 720648, 2013;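 active means inhibition above the mean of compounds lying between control limits plus 3 SD, set per campaign, cut at about 8.5% in these data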;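 further: 0% = DMSO-only wells as the low control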
# DDE Tn6 FP inh: inhibitors of Tn6 peptide binding to fibrin DD(E), primary screen, biochemical, fluorescence polarization, human fibrin, Tn6 probe. Fibrinogen beta chain (Homo sapiens), P02675. Fibrin DD(E) TRITC-Tn6 fluorescence polarization displacement. inhibition, % at 8.3 µM. 370,000 tested, 0.21% active. AID 720509, 2013;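 active means inhibition above a per-campaign cutoff: mean of compounds within control limits plus 3 SD, cut at about 15% in these data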;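 further: 0% = median of all compound wells on the plate and 100% = blocking peptide control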
# Active calls of the source: *; & = joins results of further samples. An excerpt (hit frequency here may not be typical).
SMILES,DDE Tn7 FP inh,ASAP1 GAP inh,PLC-beta3 inh,PLC-gamma1 inh,ARFGAP1 inhibitor,UHRF1 MBD2 ctr,MBD2 DNA inh,ADAM17 inh,DDE Tn6 FP inh
Cc1ccc(NC(=O)C2CCC2)cc1S(=O)(=O)N1CCCCCC1,3.4,1.8,-0.5,-0.5,-1.2,2.5,1.0,-3.0,6.7
Cc1ccc(O)c([C@H](CCN(C(C)C)C(C)C)c2ccccc2)c1,8.1&-0.1&-2.8,-8.4&3.9,-0.8&0.6&3.7,5.8&3.6&4.2,-6.3&-7.4,1.4&-0.1&0.2,-4.0&-2.4&1.2,-3.3&-0.8&0.4,-2.3&3.0&4.0
COc1ccc(C2CC(=O)c3cnc(NC(=O)c4cccc(OC)c4)nc3C2)cc1 (stereo not given),-1.5,3.1,-0.4,0.0,-8.6,-3.0,-3.8,1.3,-4.7
COc1ccccc1NS(=O)(=O)c1cc(NC(=O)CCNC(C)=O)ccc1C,4.7,-5.8,-5.5,0.8,9.1,0.9,4.0,-6.9,2.3
CC1CCc2c(nc3ncnn3c2Nc2ccc(OC(F)(F)F)cc2)C1 (stereo not given),-0.7,-16.8,1.7,0.8,13.3,0.4,-3.1,0.5,5.0
CN1CCN(CCCN2c3ccccc3Sc3ccc(Cl)cc32)CC1,6.1,3.3,-20.2,-9.0,-7.4,0.6,2.8,-14.0,5.7
COc1cccc(C2=NOC(C(=O)NC(C)C)C2)c1 (stereo not given),5.6,-3.9,-1.1,0.3,3.4,1.2,-1.0,-5.8,-0.6
O=C(Nc1ccccc1)c1ccccc1NS(=O)(=O)c1ccc(Cl)s1,4.2,2.0,-20.3,-17.7,3.3,-1.9,-7.5,-3.3,-3.4
Cc1ccc(NC(=O)CN(C)C(=O)CNC(=O)c2cccs2)cc1,5.2,10.1,-5.5,-0.2,-8.2,1.5,5.1,-0.7,-2.8
Cc1nnc(SCC(=O)NCc2cccs2)[nH]c1=O,-3.7,2.2,0.4,-1.1,0.4,-0.6,4.9,-1.3,2.0
NCCCCCCNS(=O)(=O)c1cccc2c(Cl)cccc12,1.2,-6.4,0.2,3.5,8.6,-0.5,-4.1,1.6,5.8
Cc1ccnc(SCC(=O)Nc2sc3c(c2C#N)CCC(C(C)(C)C)C3)n1 (stereo not given),-1.7,-5.0,5.0,1.4,-4.6,-2.3,0.1,-0.1,2.8
Cc1cccc(C(=O)NCCC(=O)Nc2ccc(C)c(F)c2)c1,-3.4,-1.5,-4.8,6.6,16.2,-2.0,1.4,0.8,-2.6
COc1cc2[nH]c(C(=O)N3CC(C)OC(C)C3)cc2c(OC)c1OC (stereo not given),6.2,7.1,-67.6,-41.6,9.6,-0.4,6.2,-7.3,-4.9
CCCc1cc(C(=O)N2CCCC(C(=O)c3ccc(Cl)cc3)C2)n(C)n1 (stereo not given),3.7,2.2,-5.6,-0.4,-5.1,1.0,-1.6,-3.1,-2.2

# Ordered by formula weight (rising): part of the list above
SMILES,DDE Tn7 FP inh,ASAP1 GAP inh,PLC-beta3 inh,PLC-gamma1 inh,ARFGAP1 inhibitor,UHRF1 MBD2 ctr,MBD2 DNA inh,ADAM17 inh,DDE Tn6 FP inh
NCCCCCCNS(=O)(=O)c1cccc2c(Cl)cccc12,1.2,-6.4,0.2,3.5,8.6,-0.5,-4.1,1.6,5.8
COc1ccc(C2CC(=O)c3cnc(NC(=O)c4cccc(OC)c4)nc3C2)cc1 (stereo not given),-1.5,3.1,-0.4,0.0,-8.6,-3.0,-3.8,1.3,-4.7
COc1ccccc1NS(=O)(=O)c1cc(NC(=O)CCNC(C)=O)ccc1C,4.7,-5.8,-5.5,0.8,9.1,0.9,4.0,-6.9,2.3

# Full records from above. Order of values: DDE Tn7 FP inh, ASAP1 GAP inh, PLC-beta3 inh, PLC-gamma1 inh, ARFGAP1 inhibitor, UHRF1 MBD2 ctr, MBD2 DNA inh, ADAM17 inh, DDE Tn6 FP inh
# Record of `COc1cccc(C2=NOC(C(=O)NC(C)C)C2)c1` (stereo not given) : 5.6, -3.9, -1.1, 0.3, 3.4, 1.2, -1.0, -5.8, -0.6
# Record of `Cc1ccc(NC(=O)C2CCC2)cc1S(=O)(=O)N1CCCCCC1` : 3.4, 1.8, -0.5, -0.5, -1.2, 2.5, 1.0, -3.0, 6.7
# Record of `COc1ccc(C2CC(=O)c3cnc(NC(=O)c4cccc(OC)c4)nc3C2)cc1` (stereo not given) : -1.5, 3.1, -0.4, 0.0, -8.6, -3.0, -3.8, 1.3, -4.7
# Record of `CCCc1cc(C(=O)N2CCCC(C(=O)c3ccc(Cl)cc3)C2)n(C)n1` (stereo not given) : 3.7, 2.2, -5.6, -0.4, -5.1, 1.0, -1.6, -3.1, -2.2
# Record of `Cc1ccc(O)c([C@H](CCN(C(C)C)C(C)C)c2ccccc2)c1` : 8.1&-0.1&-2.8, -8.4&3.9, -0.8&0.6&3.7, 5.8&3.6&4.2, -6.3&-7.4, 1.4&-0.1&0.2, -4.0&-2.4&1.2, -3.3&-0.8&0.4, -2.3&3.0&4.0

# Additional compounds follow:
SMILES,DDE Tn7 FP inh,ASAP1 GAP inh,PLC-beta3 inh,PLC-gamma1 inh,ARFGAP1 inhibitor,UHRF1 MBD2 ctr,MBD2 DNA inh,ADAM17 inh,DDE Tn6 FP inh
O=C(Cn1cnc2c(cnn2-c2ccccc2)c1=O)Nc1ccc(S(=O)(=O)N2CCOCC2)cc1,0.0,7.1,-2.5,0.2,4.8,-9.3,2.1,2.3,-4.2
C/C(=N/OC(=O)c1ccccc1)c1oc(C)nc1C,6.1,-3.5,-5.0,3.9,-9.2,2.6,5.3,-3.7,-10.0
CCC(C)C(NC(=O)OC(C)(C)C)C(=O)NCc1ccco1 (stereo not given),2.2,12.5,-3.8,2.3,3.8,5.0,0.0,0.2,-6.9
CSC1=C(C#N)C(c2ccccc2Cl)C(C(C)=O)=C(C)N1 (stereo not given),6.7,6.3,-53.0,-44.7,-14.7,2.1,5.8,-9.2,2.5
CSc1ccccc1NC(=O)c1cc(CC(C)C)on1,0.6,15.9,5.2,2.3,-3.0,1.8,-7.0,-1.3,7.7
CCOC(=O)c1cnn(-c2ccccc2)c1NC(=O)C(F)(F)C(F)(F)C(F)(F)F,3.7,5.5,7.5,-1.4,7.2,1.3,-7.1,2.2,3.2
CCn1cc(C(=O)O)c(=O)c2cc(F)c(N3CCN(C)CC3)cc21,-1.3,10.0,-25.8,-21.3,-10.8,-0.4,2.2,-24.3,0.7
NC(N)=Nc1nc(CSCC/C(N)=N/S(N)(=O)=O)cs1,4.0,-20.4,0.5,-3.3,5.0,-0.2,-3.5,-5.5,-6.3
Cn1c(CCN2CCCCC2)nc2cc(NS(=O)(=O)c3ccccc3)ccc21,-3.8,14.1,-0.9,-0.6,6.2,11.7,6.1,-8.0,-11.1
COCCN(C(=O)COC(=O)c1ccccc1Cc1ccccc1)c1c(N)n(Cc2ccccc2)c(=O)[nH]c1=O,6.3,-2.5,0.4,1.5,-15.0,-0.5,-5.0,1.0,-1.1
C=CC[C@]12C=C(OC)C(=O)C=C1O[C@@H](c1ccc3c(c1)OCO3)[C@H]2C,-9.3,2.4,1.7,4.8,-5.4,2.4,4.4,-1.9,-13.4
CCc1ccc(Oc2coc3cc(OCC(=O)Nc4cc(C)ccc4C)ccc3c2=O)cc1,4.5,0.0,1.1,0.2,3.9,1.7,-0.1,2.1,1.3
CC1(C)S[C@@H]2[C@H](NC(=O)[C@H](N)c3ccc(O)cc3)C(=O)N2[C@H]1C(=O)O,-0.4,-10.6,-80.4,-60.9,12.4,7.8,2.0,-54.2,-1.0
Cc1ccc(NCC(O)C(O)C(O)CO)c(N=Nc2ccccc2)c1C (stereo not given),-0.2,6.4,-3.5,1.8,-2.6,-0.8,-6.2,-1.6,-10.1
COc1ccc2cc(CN(CCO)C(=O)c3ccc(Br)cc3)c(=O)[nH]c2c1,-2.0,11.1,7.7,3.0,1.8,6.6,6.4,-10.2,-3.0
O=C(Nc1nc2ccccc2c(=O)s1)c1ccco1,6.4,14.5,-6.1,1.6,-1.9,-2.9,3.3,-3.8,3.4
CNCC[C@@H](Oc1ccccc1C)c1ccccc1,2.9,8.6,0.9,2.2,9.2,-2.6,-4.4,-3.5,3.3
COC(=O)c1ccc(N=C2S/C(=C\c3cc(C)n(-c4cccnc4)c3C)C(=O)N2C)cc1,8.1,-4.5,-11.5,-14.3,8.1,2.3,-9.3,-0.2,-0.8
Fc1ccc(-c2cn3ccccc3n2)cc1,1.7,4.2,-10.1,-2.1,1.0,2.7,0.7,-47.6,-0.2
Cc1ccc(C(=O)CCC(=O)Nc2cccc(C(F)(F)F)c2)cc1,5.9,-8.2,1.8,0.0,-3.0,-2.8,0.0,-6.4,-0.5
O=C(O)c1ccc2c(c1)CC(c1ccccc1)OC2=O (stereo not given),1.5,-4.9,0.8,2.0,1.4,2.2,-7.0,-2.5,4.6
O=C1OCCN1/N=C/c1ccc([N+](=O)[O-])o1,-4.7,9.9,-27.9,-21.6,7.3,-5.6,-4.8,-3.4,0.0
CCc1ccc(OCC(=O)NC(=S)Nc2ccc(C(=O)O)cc2)cc1,-5.6,-7.0,-4.2,-1.3,8.5,-2.8,0.7,-3.6,-1.4
O=C(C(Cc1ccccc1)N1C(=O)C2C3C=CC(C3)C2C1=O)N1CCCCCC1 (stereo not given),-3.4,13.2,-1.0,-1.8,-9.3,2.8,-4.5,-4.2,-1.1
CCc1ccc(OCc2nnc(SCc3ccc(C(=O)O)cc3)o2)cc1,-2.6,-4.4,1.0,1.8,-2.1,1.4,-1.4,1.5,-1.8
Cc1cccc(NC(=O)COC(=O)c2n[nH]c3ccccc23)c1C,-3.5,0.1,-2.7,5.7,-0.1,0.2,1.9,-4.5,-0.7
Nc1nonc1-n1nnc(C(=O)N/N=C/c2ccc(OCc3ccc(F)cc3)cc2)c1COc1ccccc1,2.9,5.4,-7.9,0.7,-1.9,-2.7,3.4,-3.9,0.1
O=C(c1cccnc1)N1CCN(Cc2cccc(F)c2)CC1,-3.2,4.2,3.1,6.8,8.9,1.9,2.8,0.0,-8.6
O=C(Cn1ncc2c1-c1ccccc1OC2)N1CCc2ccccc21,2.6,12.8,-10.7,-9.2,4.1,2.7,1.6,-18.2,8.6
CCCC(O)(CCN1CCCCC1)c1ccc(OCC)cc1 (stereo not given),-3.4,-14.9,3.0,0.5,-4.4,-0.7,3.7,0.0,6.0
O=C(Nc1nc2ccccc2n1CCN1CCOCC1)c1ccc(Cn2cc([N+](=O)[O-])cn2)o1,-5.8,-1.3,-5.0,0.1,9.0,1.9,3.1,2.3,2.9
